Screens as filed in PubChem.
IkB sig inh: suppresses IkB signaling in ABC-DLBCL reporter cells; ABC-DLBCL IkBa-CBG/CBR dual luciferase ratio, 4 h; response scale: scaled: untreated 0%, proteasome inhibitor 100%; Potency, µM (titrated, usually from 57.1 µM), for inactives: at the top dose IkBa stabilization activation; actives 0.04% (n = 110,000); AID 445; active = well fitted curve in the direction sought with a large enough effect in the signal ratio, not every such curve was filed as active; inconclusive = small, poorly fitted or top-dose-only effect, or a change in a side signal; the % refers to the signal ratio;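 note: the direction sought is a rising ratio; 0% = basal untreated cells and 100% = reference inhibitor full response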
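Luminescence ratio of IκBα-fused green versus native red beetle luciferase in OCI-Ly3 cells, 4 h post-doxycycline with compound; red signal alone, scaled from basal (0%) to zero light (-100%), flagged nonspecific or cytotoxic effects.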
Peg3 imprint: induces erasure of genomic imprints in mouse ES cells. mouse ES Peg3-LacZ reporter, beta-gal luminescence, 40 h. Potency, µM (series often up to 60.7 µM), inactives show at the highest dose activity change, positive = activation, hits mostly activators. actives 0.02% (n = 110,000); active = well fitted activation curve with a large enough effect; inconclusive = small, poorly fitted or top-dose-only effect; inactive = no such curve, though single readings can be large or run the other way;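 note: 0% = negative control wells on the plate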
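Imprint erasure is scored as LacZ activity from the silenced maternal Peg3 allele in feeder-free female ES cells cultured 40 h with LIF. Luminescence is normalized to in-plate negative controls and fitted to the Hill equation.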
An asterisk follows results filed as active; ? = inconclusive; nt = no result given; & = joins results of further samples; [ ] = another dose, or the depositor's remark. Potency is the fitted concentration of half-maximal effect. An excerpt; most or all hits stand in other tables.

SMILES | IkB sig inh | Peg3 imprint
Nc1cccc(N)c1 | 2.9% | -1%
O=c1[nH]c(=O)n([C@@H]2C[C@H](O)[C@H](CO)O2)cc1C(F)(F)F | 3.3%[25.6 µM] | -19%[16.8 µM]
CCCCCC(C)N (stereo not drawn) | nt | -4%
Cn1c(Nn2cnnc2)nc2ccccc21 | 1.5% | -1%
NC=O | -0.9% | 4%
O=CNc1ccccc1 | 1.2% | -4%
NCC1OC(OC2C(N)CC(N)[C@@H](O)[C@@H]2OC2O[C@H](CO)[C@@H](O[C@@H]3OC(CN)C(O)C(O)C3N)C2O)C(N)C(O)C1O (stereo partly drawn) | nt | -2%
Nc1ccn([C@@H]2O[C@H](CO)[C@@H](O)[C@@H]2O)c(=O)n1 | nt | -18%
CCCCC(CC)C(=O)O (stereo not drawn) | -1.9% | 2%
CC(C)(S)[C@@H](N)C(=O)O | nt | 3%
CN1[C@@H]2CC[C@H]1CC(OC(=O)C(CO)c1ccccc1)C2 (stereo partly drawn) | nt | -1%&-10%
CCCCN(CCCC)CCC(O)c1cc2c(Cl)cc(Cl)cc2c2cc(C(F)(F)F)ccc12 (stereo not drawn) | 1.2%[25.6 µM] | -14%[16.8 µM]

Compounds above that have a carbonyl joined to an NH by a bond outside any ring (two):
SMILES | IkB sig inh | Peg3 imprint
NC=O | -0.9% | 4%
O=CNc1ccccc1 | 1.2% | -4%

Next section:
SMILES | IkB sig inh | Peg3 imprint
C[C@@H](C1=C(CCN(C)C)Cc2ccccc21)c1ccccn1 | 0.5% | -5%
C[C@@H]1C[C@H]2[C@@H]3CCC4=CC(=O)C=C[C@]4(C)[C@@]3(F)[C@@H](O)C[C@]2(C)[C@@]1(O)C(=O)CO | ? | 0%
C=C(C)[C@H]1CC=C(C)C(=O)C1 | 1.2% | 0%&2%
CC[C@](C)(CN(C)C)OC(=O)c1ccccc1 | -1.3%[25.6 µM] | 2%[16.8 µM]
CO[C@]12CC(COC(=O)c3cncc(Br)c3)CN(C)[C@@H]1Cc1cn(C)c3cccc2c13 (stereo partly drawn) | nt | -10%
CCc1ccc(Cn2nnc(C(=O)NCc3ccccc3OC)c2N)cc1 | -1.1% | 7%
CN1CCC(=C2c3ccccc3Sc3ccccc32)CC1 | 0.7%[25.6 µM] | ?
CC(=O)Oc1c(C)c(C)c2c(c1C)CCC(C)(CCCC(C)CCCC(C)CCCC(C)C)O2 (stereo not drawn) | nt | -14%&-7%&-7%
Cc1cccc(C(=O)O)c1O | nt | 0%
C[C@H]1O[C@@H](O[C@H]2[C@@H](O)C[C@H](O[C@H]3[C@@H](O)C[C@H](O[C@H]4CC[C@@]5(C)[C@H](CC[C@@H]6[C@@H]5C[C@@H](O)[C@]5(C)[C@@H](C7=CC(=O)OC7)CC[C@]65O)C4)O[C@@H]3C)O[C@@H]2C)C[C@H](O)[C@@H]1O | 2.0% | 9%&1%
O=S(=O)(Nc1ccc(S(=O)(=O)N2CCCCC2)cc1)c1cccs1 | 3.9% | -6%
C[C@]12CCC3c4ccc(O)cc4CCC3C1CC(O)C2O (stereo partly drawn) | nt | -6%

One compound at a time (already shown). Order of values: IkB sig inh	Peg3 imprint
Profile of CCCCC(CC)C(=O)O (stereo not drawn) → -1.9%	2%
Profile of Nc1ccn([C@@H]2O[C@H](CO)[C@@H](O)[C@@H]2O)c(=O)n1 → nt	-18%
Profile of C[C@H]1O[C@@H](O[C@H]2[C@@H](O)C[C@H](O[C@H]3[C@@H](O)C[C@H](O[C@H]4CC[C@@]5(C)[C@H](CC[C@@H]6[C@@H]5C[C@@H](O)[C@]5(C)[C@@H](C7=CC(=O)OC7)CC[C@]65O)C4)O[C@@H]3C)O[C@@H]2C)C[C@H](O)[C@@H]1O → 2.0%	9%&1%
Profile of CC(=O)Oc1c(C)c(C)c2c(c1C)CCC(C)(CCCC(C)CCCC(C)CCCC(C)C)O2 (stereo not drawn) → nt	-14%&-7%&-7%
Profile of CCCCCC(C)N (stereo not drawn) → nt	-4%

Other compounds follow:
SMILES | IkB sig inh | Peg3 imprint
CCc1nc2ccc(C(=O)N3CCN(c4cc(C)ccc4C)CC3)cc2nc1CC | ? | -14%[10.9 µM]
Cc1cn([C@H]2C[C@H](N=[N+]=[N-])[C@H](CO)O2)c(=O)[nH]c1=O | 0.1%[11.4 µM] | 5%[10.9 µM]
CC(=O)Oc1cccc2c1C(=O)c1c(OC(C)=O)cc(C(=O)O)cc1C2=O | nt | -25%
C[C@@H](C(=O)NCc1ccc(C(F)(F)F)nc1)[C@H]1C[C@]1(C)[C@H](NC(=O)OCc1ccccc1)c1ccccc1 | nt | -14%
CN1CCC[C@@H]1c1cccnc1.O=C(O)c1ccccc1O.O=C([OH2+])c1ccccc1O.O=C([OH2+])c1ccccc1O.[Mn] | -0.7%[11.4 µM] | -19%[10.9 µM]
Nc1ccc(S(=O)(=O)c2ccc(N)cc2)cc1 | -2.6% | 9%
C=CC(C)(O)CCC=C(C)C (stereo not drawn) | 0.4% | 5%&-5%
COc1ccc2c(c1)c(CC(=O)O)c(C)n2C(=O)c1ccc(Cl)cc1 | 3.2% | -10%
CCN(CC)CCCC(C)Nc1ccnc2cc(Cl)ccc12 (stereo not drawn) | nt | -8%&-7%
C=C[C@H](N)CCC(=O)O | 0.7% | -1%
CCC1(C)CC(=O)NC1=O (stereo not drawn) | nt | 11%&-7%
c1ccc2c(c1)CCC[C@@H]2C1=NCCN1 | -1.4%[25.6 µM] | -10%[16.8 µM]
CN(C)c1ccc(O)c2c1C[C@H]1C[C@H]3[C@@H](N(C)C)C(=O)C(C(N)=O)=C(O)[C@]3(O)C(=O)C1=C2O | -1.3%[25.6 µM] | -17%[16.8 µM]
CCOC(=O)CN1CC23C=CC(O2)C(C(=O)NC2CCCCC2)C3C1=O (stereo not drawn) | 1.6% | 2%
O=C(CCCN1CCC(O)(c2cccc(C(F)(F)F)c2)CC1)c1ccc(F)cc1 | 7.6% | -14%
CN1CCC[C@@H]1c1cccnc1.O=C(O)c1ccccc1O.O=C([OH2+])c1ccccc1O.O=C([OH2+])c1ccccc1O.O=C([OH2+])c1ccccc1O.[Mn] | -1.1%[11.4 µM] | -3%[10.9 µM]
O=C(Nc1ccccc1)OC[C@H](CN1CCCCC1)OC(=O)Nc1ccccc1 | 0.3%[25.6 µM] | -17%[16.8 µM]
C/C=C1\C(=O)C[C@@H]2[C@@H]3CCC4=CC(=O)CC[C@@]4(C)[C@H]3CC[C@@]12C | 13% | nt
Nc1nc2c(c(=O)[nH]1)N(C=O)C(CNc1ccc(C(=O)NC(CCC(=O)O)C(=O)O)cc1)CN2 (stereo not drawn) | nt | 4%
O=C(O)CSc1nnc(Cn2c(=O)sc3ccccc32)n1-c1cccc(Cl)c1 | 0.6% | -5%
C/C=C/C=C/C(=O)O | 0.0% | -2%
C/C=C1\C(=O)CC2C3CCC4=CC(=O)CC[C@]4(C)C3CC[C@]12C (stereo partly drawn) | nt | -19%&-11%
CC(=O)[C@@H]1CC[C@@H]2[C@@H]3CCC4=CC(=O)CC[C@@]4(C)[C@H]3CC[C@]21C | 1.3%[25.6 µM] | -17%[16.8 µM]
COc1c(Cl)ccc(Cl)c1C(=O)O | nt | -8%
COc1cc(OC)c2ccc(=O)oc2c1 | nt | -23%
N[C@H](CO)C(=O)O | nt | -5%
OCC(O)CO | -0.2%&0.1% | 6%&6%
COC(=O)C1=C(C)NC(C)=C(C(=O)OC(C)C)C1c1cccc2nonc12 (stereo not drawn) | 0.4% | -7%
COc1cc(NS(C)(=O)=O)c(OC)cc1NC(=O)c1cccc(F)c1 | 2.6% | nt
CC(=O)[C@@]1(O)CC[C@H]2C3CCC4=CC(=O)CC[C@]4(C)C3CC[C@@]21C (stereo partly drawn) | nt | -14%
CNc1ccc([N+](=O)[O-])cc1 | -0.8% | -4%
CCCCC(CC)COCC1CO1 (stereo not drawn) | 0.1% | -2%
CCCCOCCO | -0.1%&0.8% | -2%&5%
CSC(=N)N | 0.1%&-4.1% | -4%&-5%
CCC(C)(C)NC(=O)CC(c1ccc(OC)cc1)n1cccc1 (stereo not drawn) | 0.6% | -14%
O=C(O)/C=C(\CC(=O)O)C(=O)O | -0.2%[11.4 µM] | -10%[10.9 µM]
C#C[C@]1(O)CCC2C3CCC4=C(CCC(=O)C4)C3CC[C@@]21C (stereo partly drawn) | nt | -24%
CC(=O)CC(=O)Nc1ccccc1 | 1.8% | 1%
NCCc1ccn[nH]1 | 1.4%[25.6 µM] | -2%[16.8 µM]
Cn1c(CCN2CCN(c3ccccc3)CC2)nc2cc(NC(=O)c3ccco3)ccc21 | -1.7% | -10%
NCCCC(=O)O | 0.1%&-3.0% | -6%&-6%&0%
NC(N)=NCCCCN=C(N)N | 0.1% | -8%
CCCC(CCC)C(=O)O | 1.5%&0.2% | 3%&-1%&3%
CN(C)c1ccc(C(=C2C=CC(=[N+](C)C)C=C2)c2c(O)c(S(=O)(=O)O)cc3cc(S(=O)(=O)O)ccc23)cc1 | ? | -25%[10.9 µM]
COc1ccc(OCCSc2nnnn2C2CCCCC2)cc1 | 2.6% | -5%
S=C([S-])NCCNC(=S)[S-].[Zn+2] | 1.9% | 7%
CC[N+](C)(CC)CCOC(=O)C1c2ccccc2Oc2ccccc21 | 1.6%[25.6 µM] | -14%[16.8 µM]
C=CCOc1ccccc1OC[C@H](O)CNC(C)C | -0.1%[25.6 µM] | -4%[16.8 µM]
N[C@H]1[C@@H](C(=O)O)[C@H]2C=C[C@H]1C2 | -0.3%[11.4 µM] | -13%[10.9 µM]
C[N+]1([C@H](CO)Cc2c[nH]c3ccccc23)Cc2ccccc2C1 | 0.4%[11.4 µM] | -12%[10.9 µM]
O=C(CCCN1CCC(O)(c2ccc(Br)cc2)CC1)c1ccc(F)cc1 | -0.8%[25.6 µM] | -12%[16.8 µM]
CC(O)(P(=O)(O)O)P(=O)(O)O | -0.3%[25.6 µM] | -5%
O=C(O)CCC(=O)C(=O)O (tested in a mixture with another compound) | nt | 21%
O=NO | -1.0%&2.8% | -7%&5%
CCCOc1cc(N)ccc1C(=O)OCCN(CC)CC | -0.5%[25.6 µM] | -1%[16.8 µM]
CN1C(C(=O)Nc2ccccn2)=C(O)c2sccc2S1(=O)=O | 3.0%[25.6 µM] | 1%
COc1ccc2cc1Oc1ccc(cc1)CC1c3c(cc4c(c3Oc3cc5c(cc3OC)CCN(C)C5C2)OCO4)CCN1C (stereo not drawn) | nt | -39%[inhibitor]
CCn1c(CNc2ccc(OC)cc2)nnc1SCC(=O)N1CCCc2ccccc21 | 1.1% | -6%
O=C1c2cccc(O)c2C(=O)c2c(O[C@@H]3O[C@H](CO)[C@@H](O)[C@H](O)[C@@H]3O)cccc21 | -1.5%[11.4 µM] | -2%[10.9 µM]
NC12CC3CC(CC(C3)C1)C2 | 0.8%[25.6 µM] | -5%

Continued:
SMILES | IkB sig inh | Peg3 imprint
CCC(C)c1ccccc1O (stereo not drawn) | 0.2%&1.4% | 6%&10%
CC[C@@]1(O)C(=O)OCc2c1cc1n(c2=O)Cc2cc3cc(O)ccc3nc2-1 | nt | -30%
Cc1c(OCC(=O)OC(C)C)ccc2c3c(c(=O)oc12)CCC3 | -0.1% | 6%
N[C@@H](Cc1ccc(O)c(O)c1)C(=O)O | 0.7%[25.6 µM] | 1%[16.8 µM]
O=C(O)CC(O)C(=O)O (stereo not drawn) | -1.4% | -3%
CN(C)CCOC(c1ccccc1)c1ccccc1 | 0.4%[25.6 µM] | -49%[inhibitor]
N[C@H](Cc1ccc(O)c(O)c1)C(=O)O | nt | 3%
CC[C@]1(c2ccccc2)NC(=O)N(C)C1=O | 0.3%[25.6 µM] | -4%[16.8 µM]
CC(=O)OCC(=O)[C@H]1CC[C@H]2[C@@H]3CCC4=CC(=O)CC[C@]4(C)[C@H]3CC[C@]12C | nt | -11%
NC(CCC(=O)N[C@@H](CS)C(=O)NCC(=O)O)C(=O)O (stereo partly drawn) | nt | 1%
CN(C)CCCO[C@H]1[C@@H]2OC(C)(C)O[C@@H]2O[C@@H]1[C@H](O)CO | 1.6%[25.6 µM] | 21%[16.8 µM]
Clc1ccc([C@H](Cn2ccnc2)OCc2csc3c(Cl)cccc23)c(Cl)c1 | 0.3%[25.6 µM] | 13%[16.8 µM]
NCCC[C@@](N)(C(=O)O)C(F)F | -5.4% | nt

Gathered by group: the entries above containing two or more sulfur atoms (5)
SMILES | IkB sig inh | Peg3 imprint
O=S(=O)(Nc1ccc(S(=O)(=O)N2CCCCC2)cc1)c1cccs1 | 3.9% | -6%
O=C(O)CSc1nnc(Cn2c(=O)sc3ccccc32)n1-c1cccc(Cl)c1 | 0.6% | -5%
CN(C)c1ccc(C(=C2C=CC(=[N+](C)C)C=C2)c2c(O)c(S(=O)(=O)O)cc3cc(S(=O)(=O)O)ccc23)cc1 | ? | -25%[10.9 µM]
S=C([S-])NCCNC(=S)[S-].[Zn+2] | 1.9% | 7%
CN1C(C(=O)Nc2ccccn2)=C(O)c2sccc2S1(=O)=O | 3.0%[25.6 µM] | 1%
